# RanGTP-Imp inh = inhibitors of RanGTP-importin-beta interaction, primary screen, biochemical, FRET, CFP-Ran, YFP-importin-beta, homogeneous | cell-free CFP-Ran/YFP-importin-beta FRET ratio | 1.1% of 300,000 active | inhibition, % (test concentration not listed);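 active = most replicates above 15%; inconclusive = exactly half above 15%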;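 note: 0% = DMSO wells and 100% = Ran loaded with GDP instead of GTP; wells of about 40 µL received 100 nL stock; the first replicate is given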
# Beta cell apopt = blocks beta cell apoptosis; protection from apoptosis, % (concentration not given with the values); AID 435005; INS-1E cytokine-induced death, ATP luminescence, 48 h; percent of positive-control rescue, neutral wells zero; 0.8% of 300,000 active;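 active = all replicates at 75% or more, or half of them and the mean; inconclusive = half reach 75% but not the mean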;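 note: 0% = cytokine-treated negative control wells and 100% = positive control rescue; higher means more ATP so stronger rescue from cytokine killing; wells of about 40 µL received 100 nL stock; the first replicate is given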
# T cruzi repl = blocks replication of Trypanosoma cruzi. inhibition, % (no concentration beside the values). T. cruzi beta-gal in NIH3T3, luminescence, 90 h. 1.4% of 300,000 active;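 active = mean inhibition across valid replicates above about 55%, limit read from the data; inconclusive = mean below that limit but half or more replicates reach it; inactive = mean below it, under half of replicates reach it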;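 note: signal also drops with host cell toxicity which is not excluded here; 0% = plate median of DMSO wells and 100% = zero luminescence signal; higher percent means less beta-gal luminescence so fewer parasites; stock transfer was 50 nL into about 50 µL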
# ALR inh = human ALR oxidase inhibition via reduced H2O2. purified ALR, DTT oxidation, H2O2 HRP-luminol luminescence. AID 485317. 3.8% of 290,000 active. inhibition, % (no concentration beside the values). P55789;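 active = mean and each replicate at 75% or more; inconclusive = only one of the two met; inactive = neither met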;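 note: stock transfer was 7.5 nL into about 7.5 µL; 0% = neutral wells and 100% = wells with inactivated enzyme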
# Target sequence (P55789 whole entry, looked up): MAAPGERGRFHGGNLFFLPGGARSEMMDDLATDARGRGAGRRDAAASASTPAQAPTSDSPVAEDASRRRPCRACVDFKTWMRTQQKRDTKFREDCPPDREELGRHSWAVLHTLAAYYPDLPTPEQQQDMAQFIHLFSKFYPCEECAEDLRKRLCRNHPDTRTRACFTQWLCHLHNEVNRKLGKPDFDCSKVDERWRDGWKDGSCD
# Calb FLC = C. albicans growth modulation with fluconazole; C. albicans CaCi-2 (fluconazole-resistant clinical isolate) + fluconazole, Alamar Blue growth, 48 h; growth inhibition, % (test concentration not listed); 0.57% of 300,000 active; AID 1979;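 active = most replicates above 75%; inconclusive = exactly half above 75%; inactive = most below 75%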;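 note: all wells also contain fluconazole at 8 µg/ml as a sub-toxic cotreatment; 0% = median of DMSO wells and 100% = median of geldanamycin control wells; wells of about 8 µL received 7.5 nL stock; the first replicate is given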
# FGF22 binding = binders of recombinant human FGF22 by thermal shift; SYPRO orange fluorescence; percent of sucrose octasulfate shift, DMSO zero; Q9HCT0; calls only at 9.99 µM; 1.5% of 340,000 active; AID 651658;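 active = melting point raised past a set limit in the mean and every replicate; inconclusive = no clear call; three in four hits are not shown here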
# Target sequence (Q9HCT0 whole entry, looked up): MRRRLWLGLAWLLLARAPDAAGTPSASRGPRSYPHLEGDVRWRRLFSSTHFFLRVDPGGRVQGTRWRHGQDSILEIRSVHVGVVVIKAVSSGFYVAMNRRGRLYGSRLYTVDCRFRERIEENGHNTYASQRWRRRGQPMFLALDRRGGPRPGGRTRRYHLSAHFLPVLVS
# Ecoli rRNA inh = inhibitors of bacterial rRNA selective over humanized ribosomes. GFP signal change (wild-type ribosome), % (concentration not given with the values). 1.6% of 350,000 active. AID 720706. E. coli WT GFP vs humanized-ribosome RFP mutants, fluorescence, 24 h; hits give low values; DMSO median 0, no signal -100;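 active = significant combined selectivity score with lowered wild-type GFP, culture density cut under 30%, mutant RFP and density less affected; inactive = any of these conditions unmet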; note: one replicate is shown; some compounds called inactive have numbers as strong as hits
# AF4-AF9 inh = blocks AF4 peptide binding to human AF9; P42568; AlphaScreen, biotin-AF4 peptide binding to FLAG-AF9; inhibition, % at 10 µM; 0.47% of 350,000 active; AID 651704;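 active = every replicate reaching a set inhibition limit, whatever the replicate mean, cut at about 25% in these data; inconclusive = mean inhibition reaches that limit but some replicates miss it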;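 note: 0% = plate neutral control median and 100% = total signal loss; the record names both 10 and 1 µM as test concentration; the first replicate is given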
# Target sequence (P42568 whole entry, looked up): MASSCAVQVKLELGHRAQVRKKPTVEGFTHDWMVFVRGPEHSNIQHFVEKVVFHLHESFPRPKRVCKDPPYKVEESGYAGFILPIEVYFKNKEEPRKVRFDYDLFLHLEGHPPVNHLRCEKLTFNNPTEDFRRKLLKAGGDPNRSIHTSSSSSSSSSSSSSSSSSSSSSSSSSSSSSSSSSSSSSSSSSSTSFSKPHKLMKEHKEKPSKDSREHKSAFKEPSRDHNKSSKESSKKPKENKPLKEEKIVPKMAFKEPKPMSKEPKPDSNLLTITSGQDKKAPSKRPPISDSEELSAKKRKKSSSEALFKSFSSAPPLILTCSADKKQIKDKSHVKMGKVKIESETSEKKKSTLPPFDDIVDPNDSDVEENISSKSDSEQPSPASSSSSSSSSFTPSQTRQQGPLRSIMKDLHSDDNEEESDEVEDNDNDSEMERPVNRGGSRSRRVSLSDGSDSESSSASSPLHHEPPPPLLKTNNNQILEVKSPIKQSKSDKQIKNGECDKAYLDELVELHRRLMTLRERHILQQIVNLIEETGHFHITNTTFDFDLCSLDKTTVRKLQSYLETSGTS
# Ecoli rRNA inh OD600 = also measured in Ecoli rRNA inh; calls as there; OD600 change, %; measured here: OD600 growth;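 optical density of the mix in the first replicate; 0 = DMSO median and -100 = no signal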
# Ecoli rRNA inh RFP = second read-out of Ecoli rRNA inh, no call of its own (marks repeat the call); RFP signal change, %; measured here: RFP humanized mutant strains;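 first replicate; 0 = DMSO median and -100 = no signal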
# * hit, by the source's call; i = inactive; ? = inconclusive; · = not tested or not shown. A portion of the library. The share of hits here may be higher or lower than overall.
SMILES,RanGTP-Imp inh,Beta cell apopt,T cruzi repl,ALR inh,Calb FLC,FGF22 binding,Ecoli rRNA inh,Ecoli rRNA inh OD600,Ecoli rRNA inh RFP,AF4-AF9 inh
CC(C(=O)Nc1ccc2c(c1)OCCO2)N1CCN(C(=O)c2ccco2)CC1 (stereo not drawn),1.6,3,6,-5,20,·,·,·,·,·
Cc1cccc(CCNC(=O)C2CCCN(c3cnccn3)C2)c1 (stereo not drawn),-0.2,·,8,-11,-6,i,-3,-1,-0.5,-2.2
COC(=O)c1ccc(NC(=S)NC2CCCCC2C)cc1 (stereo not drawn),-4.8,4,4,17,2,·,·,·,·,·
Cc1ccccc1S(=O)(=O)Nc1nc2ccccc2nc1N1CCOCC1,-2.2,-2,-8,54,3,·,·,·,·,·
Cc1ccc(C(=O)N/N=C/c2c[nH]c3ccccc23)o1,?,-3,-17,5,-6,i,5,10,-3.2,-1.2
C=C(C)C1CC=C(C)/C(=N/NC(=O)CNc2ccc(OCC)cc2)C1 (stereo not drawn),-6.0,17,45,-8,2,i,-8,-1,3.4,3.8
O=C(Nc1cccnc1)c1ccc2c(c1)OCO2,1.0,-9,-17,2,-26,·,·,·,·,·
O=C(OCc1nc2scc(-c3ccccc3)c2c(=O)[nH]1)c1cc([N+](=O)[O-])ccc1Cl,4.7,-9,-17,1,-4,i,14,11,12,-11
CCC1(c2ccc(F)cc2)NC(=O)N(CC(=O)N2CCN(C(=O)c3ccco3)CC2)C1=O (stereo not drawn),·,-8,·,-11,·,i,19,14,4.9,0.8
Cn1c(/C=C/c2ccc(Cl)cc2Cl)c([N+](=O)[O-])c(=O)n(C)c1=O,-3.4,2,9,·,0,i,9,13,-0.9,-1.6
Cn1c(=O)c(=O)n(C)c2cc(S(=O)(=O)CCC(=O)Nc3cccc(C(F)(F)F)c3)ccc21,3.9,5,-17,2,-4,i,4,0,-7.3,-2.1
CCC(CC)C(=O)Nc1nnc(S(=O)(=O)N2CCCC2)s1,3.7,6,6,6,-17,i,5,8,1.2,0.7
Cc1ccc(NCc2nnc(SCCN3CCCCC3)n2CC2CCCO2)cc1Cl (stereo not drawn),-1.3,0,16,18,2,·,·,·,·,·
O=C(c1cc(-c2cccc(O)c2)on1)N1CCCC1,3.4,10,-16,·,-5,i,1,-3,0.0,-0.6
CN(C)c1ccc([N+](=O)[O-])cc1C(=O)O,-3.4,4,-6,-19,9,i,23,1,0.2,-2.8
COc1ccc2c(CCNC(=O)c3ccco3)c[nH]c2c1,-12,-3,-4,42,11,i,11,13,3.0,6.6
Clc1ccc(COc2ccccn2)cc1Cl,2.7,-6,4,·,1,·,·,·,·,·
CC(=O)N(C)c1ccc(NC(=O)C(F)(F)F)cc1,10,5,12,-18,0,i,3,-4,-2.6,-0.8
Cc1ccc(F)cc1CNC(=O)C1CCC(=O)N(C2CC2)C1 (stereo not drawn),3.1,1,-4,8,-7,i,15,9,2.5,-0.6
Cc1ccccc1-c1nnc(SCCOc2ccc3c(C)cc(=O)oc3c2)o1,5.5,2,9,-11,7,·,·,·,·,·
Cc1cc(C)nc(-n2nc(C)cc2Nc2ccccc2)n1,3.9,85*,7,98*,-2,·,·,·,·,·
O=C(O)c1sccc1Oc1ccc(NS(=O)(=O)c2ccccc2)cc1,?,-6,-5,-1,-10,i,8,11,-1.1,-3.1
CCCOC(=O)c1ccc(NC(=O)C2CCCO2)cc1 (stereo not drawn),-0.9,-2,-7,-3,-24,·,·,·,·,·
CCOC(=O)c1ccc(-n2[nH]c(-c3ccccc3)cc2=O)cc1,-2.0,12,0,-33,13,·,·,·,·,·
O=C(Nc1cccc(Cl)c1Cl)c1cc(S(=O)(=O)NCCc2ccccc2)ccc1F,2.4,2,-8,3,16,i,·,·,·,-0.5
O=C(COC(=O)Cn1cnc2ccccc21)Nc1cccc(S(=O)(=O)N2CCOCC2)c1,-2.6,-3,-10,-14,9,i,5,22,0.3,-5.6
CCOC(=O)N1CCN(C(=O)c2c(-c3c(Cl)cccc3Cl)noc2C)CC1,-2.3,-6,-5,-4,8,i,10,2,0.9,2.4
O=C(Oc1ccccc1)N1CCN(c2ccc(F)cc2)CC1,1.7,2,5,7,-2,·,·,·,·,·
CC(=O)c1ccc(-c2cccs2)s1,19*,1,2,-9,?,i,-1,-1,-0.8,-1.9
CC(CCC(=O)O)C1CCC2C3CCC4C[C@H](O)CCC4(C)C3CC(=O)C12C (stereo partly drawn),-0.6,3,11,-1,-17,i,-4,1,-0.5,0.6
CC(C)CSc1nc2ccccc2[nH]1,4.6,4,-1,1,-5,i,1,-4,-0.7,-0.8
Cc1cc(N(C)C)ccc1[N+](=O)[O-],1.7,-3,-7,0,-2,i,-5,-2,-4.7,4.7
COc1ccc(NC(=O)C2CCN(S(=O)(=O)c3ccc4c(c3)NC(=O)C(C)S4)CC2)cc1 (stereo not drawn),-1.9,6,-1,-7,-2,i,1,7,2.3,-0.1
S=C(NCCCc1ccccc1)Nc1ccccc1Cl,0.8,1,10,-3,-22,i,-19,-20,-0.5,1.3
CCOc1ccc(-n2c(SCc3nc(-c4ccc(C)cc4)no3)nnc2-c2ccncc2)cc1,-1.6,0,58*,-9,15,·,·,·,·,·
COc1ccc(OC)c(NC(=O)COc2ccc(S(=O)(=O)NC(C)C)cc2)c1,4.6,6,16,-20,2,·,-23*,-14*,4.9*,·
O=C1CC(=O)N2N=C(c3ccc([N+](=O)[O-])cc3)SC2=N1,0.7,-9,-4,?,3,·,·,·,·,·
Cc1ccccc1NC(=O)CN1CCC(NC(=O)Nc2ccccc2)CC1,1.9,4,-5,-7,2,·,·,·,·,·
N#Cc1ccsc1NC(=O)CN(Cc1ccccc1)Cc1ccccc1,-0.7,-6,28,·,6,·,·,·,·,·
Cc1ccc(N2CCN(S(=O)(=O)N(C)C)CC2)c(C)c1,3.3,-4,-5,·,-2,i,10,1,-0.8,-2.2
COc1cccc(-c2noc(C3CCCN(C(=O)c4ccccc4OC)C3)n2)c1 (stereo not drawn),-1.1,-5,-5,-1,13,i,-8,-10,1.1,-0.3
CC1CCN(C(=O)c2[nH]cnc2C(=O)Nc2ccccc2)CC1,·,1,·,1,·,i,1,-6,4.4,-0.7
O=C1COc2ccc(C(=O)COC(=O)C3CCN(S(=O)(=O)c4cccs4)CC3)cc2N1,-0.8,4,-2,·,-2,·,·,·,·,·
Fc1cccc(Cl)c1C1Nc2cccc3cccc(c23)N1,3.5,·,-33,-16,72,i,0,3,-2.7,10
Cc1ccc(C(=O)N/C(=C\c2cn(C)c3ccccc23)C(=O)N2CCN(C)CC2)cc1,0.8,-1,0,41,-2,i,12,5,3.0,2.6
O=C(Nc1cccnc1)c1ccc(COc2ccccc2Br)o1,-3.3,-1,2,2,-4,·,·,·,·,·
CCN(CC)C(=O)CSc1nnc(-c2ccccn2)n1-c1ccc(C)c(C)c1,-4.0,3,-15,-9,-1,·,·,·,·,·
Nc1nc(COC(=O)C2CC(=O)N(CCc3ccccc3)C2)nc(Nc2ccccc2)n1 (stereo not drawn),·,-9,·,-2,·,i,-5,-2,0.9,5.9
COc1ccc(NC(=O)CSc2ccc(-c3ccco3)nn2)cc1,?,10,2,-1,-3,i,6,13,4.2,-6.5
Clc1ccc(OCc2nn3c(-c4ccncc4)nnc3s2)cc1,0.3,-5,6,-4,1,·,·,·,·,·
Cc1cc(C)cc(NC(=S)N2CCC(NC(=O)c3ccccc3C)CC2)c1,4.2,-13,-12,3,-22,i,3,8,0.3,-0.6
O=c1[nH]c(Cc2ccccc2)nc2ccccc12,7.1,-1,-4,2,34,i,19,11,1.8,-1.4
CC1=C(c2ccc(Cl)cc2)[N+](=O)C(C)(C)N1[O-],-6.3,-9,-6,-2,10,·,12,9,1.4,-2.3
COc1ccc(NC(=O)CN(C)C(=O)CN2C(=O)c3ccc([N+](=O)[O-])cc3C2=O)cc1,1.7,-2,39,38,-7,i,1,1,0.5,2.1
NNC(=O)CNC(=O)c1ccccc1F,?,-1,-7,9,-1,·,·,·,·,·
COC(=O)c1ccc(CSc2nnc(-c3c[nH]c4ccccc34)n2C)o1,0.2,-7,-5,·,-2,i,4,2,0.9,2.7
c1ccc(-c2cc(N3CCCCC3)c3ccccc3n2)cc1,?,7,28,·,-18,i,-50,-81,-16,-4.3
Cc1ccc(NC(=O)CSc2nc(=O)n(Cc3ccncc3)c3c2CCC3)c(C)c1,?,·,-5,46,7,i,0,10,-0.3,-25
CN(CC(=O)Nc1nc2ccccc2s1)S(=O)(=O)c1ccccc1,1.8,·,-6,-4,-13,·,·,·,·,·
O=c1c2[nH]c3ccccc3c2ncn1Cc1ccco1,-2.2,-3,-12,-11,-5,·,·,·,·,·
# Later entries
SMILES,RanGTP-Imp inh,Beta cell apopt,T cruzi repl,ALR inh,Calb FLC,FGF22 binding,Ecoli rRNA inh,Ecoli rRNA inh OD600,Ecoli rRNA inh RFP,AF4-AF9 inh
COc1ccccc1OCC(=O)Nc1cccc(-c2nc3ccccc3o2)c1,?,-4,1,-11,8,i,-9,4,-0.1,1.8
O=C(COC(=O)CNS(=O)(=O)c1c(Cl)cccc1Cl)Nc1ccccc1Sc1ccccc1,-3.3,-7,-8,4,-11,i,1,-1,0.9,4.9
O=C(Cc1cccs1)N(c1ccc(Cl)cc1)C1C=CS(=O)(=O)C1 (stereo not drawn),1.1,-5,-7,-15,1,·,·,·,·,·
Cc1ccc(-c2nc3ncccc3o2)cc1NC(=O)c1ccco1,1.2,7,-7,-1,-3,·,·,·,·,·
CCC1=C/C(=C/N(C)c2ccccc2)C(=O)S1,-2.2,4,-8,-103,-3,·,·,·,·,·
CCOC(=O)c1nn(-c2sc(C(=O)OC)c(C)c2C(=O)OC)cc1O,1.8,0,16,-9,-1,i,3,-3,-1.6,1.0
Cn1nc(C(C)(C)C)c([N+](=O)[O-])c1C(=O)NCCO,-1.6,-3,-7,0,9,i,17,15,-1.5,-16
COc1ccccc1NC(=O)c1ccc2c(c1)N(CC#N)C(=O)C(C)(C)O2,?,4,9,·,-15,i,-5,-17,3.6,3.6
CC(C)(C)c1ccc(OCC(=O)N2CCCCCC2)c(Br)c1,6.0,·,?,-9,4,·,8,-4,-0.8,-0.8
Cc1ccc(N(CC(=O)N2CC(=O)Nc3ccccc32)S(=O)(=O)c2ccc3c(c2)OCCO3)cc1,-7.9,3,13,-7,6,·,-5,-13,4.0,·
CCOC(=O)/C(C#N)=C\C=C1C=CN(C)C=C1,51*,-4,2,99*,5,·,·,·,·,·
CC(=O)Nc1ccc(NC(=O)C(c2ccccc2)c2ccccc2)cc1,2.1,8,-5,-6,8,i,-2,-20,2.0,1.3
CS(=O)(=O)N1c2ccccc2[C@]2(Br)C[C@H]3C(=O)N[C@@H](Cc4ccccc4)C(=O)N3[C@H]12,-2.0,-6,1,-4,-4,i,-7,-11,-1.6,0.4
